# Assay outcomes: PubChem BioAssay, National Center for Advancing Translational Sciences (NCATS)
# SARS PLP yeast: qHTS of Yeast-based Assay for SARS-CoV PLP; S. cerevisiae expressing SARS-CoV PLpro, growth rescue; control for the full effect not named in the record; 330,000 tested, 0.19% active; Potency, µM (series often up to 32.9 µM), for inactives: at the highest dose activity, positive = growth rescue; active means well fitted rising curve with a large enough effect; inconclusive means small, poorly fitted or top-dose-only effect; inactive means no such curve, though single readings can be large or run the other way; note: 0% is about no effect; nearly all actives have a fitted effect of over 55% in size; growth read by luminescence after 48 h
# 2A StopGo: High Throughput Screening for Foot and Mouth Disease Virus Antivirals | 410,000 tested, 1.2% active | AID 1159524, 2015 | Potency, µM (highest dose often 57.9 µM), inactives show top-dose signal change, negative = less light | human cells with a luciferase reporter of 2A StopGo recoding; control for the full effect not named in the record; active = well fitted falling curve with a large enough effect; inconclusive = small, poorly fitted or top-dose-only effect; inactive = no such curve, though single readings can be large or run the other way; tested in HEK293T cells; note: % is set by controls: 0 for no effect and ±100 for the full control effect; nearly all actives have a fitted effect of over 45% in size; luciferase light after 4 h
# RE007 growth inh: qHTS Assay for Inhibitors of the HIV-1 protein Vpr; S. pombe RE007 Vpr strain, BacTiter-Glo ATP luminescence, 24 h; control for the full effect not named in the record; Potency, µM (highest dose often 92.2 µM), for the others: at the highest dose activity change, negative = less growth; 360,000 tested, 0.21% active; AID 651644, 2012; active = well fitted falling curve with a large enough effect; inconclusive = small, poorly fitted or top-dose-only effect; inactive = no such curve, though single readings can be large or run the other way;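 note: % is set by controls: 0 for no effect and ±100 for the full control effect; nearly all actives have a fitted effect of over 50% in size; the assay follows cell death caused by Vpr and the record does not say whether a fall means rescue or toxicity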
#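 Fission yeast RE007 carrying one integrated HIV-1 vpr copy, seeded at OD 0.01 in PMG+AL medium with 23 nL pinned compound. Grown 24 h at 30 degrees; viability read by BacTiter-Glo luminescence after 5 min.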
# Starred values were filed as active, the others as inactive; ? = inconclusive; [ ] = dose if it differs, or a comment. Potency is the fitted concentration of half-maximal effect.
SMILES,SARS PLP yeast,2A StopGo,RE007 growth inh
O=C(NCCC1CCCCN1S(=O)(=O)c1ccccc1)C(=O)NC1CC1 (configuration not stated),-4%,-4%,10%
COC(=O)[C@]1(C)N[C@H](CN(C)S(=O)(=O)c2ccc(C)cc2)[C@@H]2C(=O)N(Cc3ccccc3)C(=O)[C@@H]21,1%,-14%,-2%
COc1cccc(C(=O)Nc2cccc(S(=O)(=O)NC3=NCCC3)c2)c1,1%,19%,-7%
O=C(N/N=C/c1ccc(Cl)c([N+](=O)[O-])c1)c1cc(-c2ccccc2)nc2ccccc12,-1%,-10%,-1%
CC1(c2ccc3ccccc3c2)NC(=O)N(CC(=O)N2CCCC(C(F)(F)F)C2)C1=O (configuration not stated),3%,?,7%
Cc1ccc(C(=O)NCN2CCN(c3ccc(F)cc3)CC2)cc1,-11%,-23%,-17%
O=C(COc1ccccc1F)Nc1ccc(S(=O)(=O)N2CCCC2)cc1,1%,-7%,0%
CCN1C(=O)[C@H]2[C@@H](c3ccc(C)cc3)N3C(=O)N(c4cccc(F)c4)C(=O)[C@@]3(Cc3ccc(Cl)cc3)[C@H]2C1=O,2%,16%,-7%
COc1ccc(N2CCN(C(=O)CSc3nc4[nH]ncc4c(=O)n3-c3ccc(Br)cc3)CC2)cc1,0%,-17%,2%
CNC(=O)COC(=O)/C=C/c1nc2ccccc2s1,0%,-7%,3%

# The closing 7 entries of the part above open the next one.
SMILES,SARS PLP yeast,2A StopGo,RE007 growth inh
O=C(N/N=C/c1ccc(Cl)c([N+](=O)[O-])c1)c1cc(-c2ccccc2)nc2ccccc12,-1%,-10%,-1%
CC1(c2ccc3ccccc3c2)NC(=O)N(CC(=O)N2CCCC(C(F)(F)F)C2)C1=O (configuration not stated),3%,?,7%
Cc1ccc(C(=O)NCN2CCN(c3ccc(F)cc3)CC2)cc1,-11%,-23%,-17%
O=C(COc1ccccc1F)Nc1ccc(S(=O)(=O)N2CCCC2)cc1,1%,-7%,0%
CCN1C(=O)[C@H]2[C@@H](c3ccc(C)cc3)N3C(=O)N(c4cccc(F)c4)C(=O)[C@@]3(Cc3ccc(Cl)cc3)[C@H]2C1=O,2%,16%,-7%
COc1ccc(N2CCN(C(=O)CSc3nc4[nH]ncc4c(=O)n3-c3ccc(Br)cc3)CC2)cc1,0%,-17%,2%
CNC(=O)COC(=O)/C=C/c1nc2ccccc2s1,0%,-7%,3%
Fc1ccc(NC(=S)Nc2nccs2)cc1,-8%,55%[activator],-9%
CCC1C(=O)Nc2ccccc2N1C(=O)c1ccc(Cl)nc1 (configuration not stated),-1%,-1%,-2%
COC(=O)CNC(=O)CSc1nnc2cc(C)c3ccccc3n12,-6%,-15%,-3%
CC(OC(=O)c1cc(=O)c2ccccc2o1)C(=O)c1ccccc1 (configuration not stated),-1%,-5%,-13%
COc1cccc(N2CCN(C(=O)CCNS(=O)(=O)c3ccc(F)c(F)c3)CC2)c1,4%,-5%,20%
COC(=O)C1=C(c2ccc(F)cc2F)C[C@@H]2CC[C@H]1N2C(=O)N1CCC(C)CC1,-2%,-23%,-12%
O=C(OCCc1cc2ccccc2c(=O)o1)c1cccc(Br)c1,4%,-13%,13%
CCOC(=O)c1c(C)[nH]c(C(=O)C(C)OC(=O)c2ccc(NC(=O)CC#N)cc2)c1C (configuration not stated),-9%,0%,1%
COc1ccc2c3c1OC1C(=O)CC[C@@]4(O)[C@@H](C2)N(C)CC[C@]314 (some centres not stated),7%,?,3%
Nc1c(-c2ccccn2)cnn1-c1nc(-c2ccc(F)cc2)cs1,-5%,0%,-8%
CCC(CO)Oc1cc(NC(=O)c2ccc([N+](=O)[O-])cc2)c2ncn(C(C)C)c2c1 (configuration not stated),-29%,-23%,-1%
Cc1cccc(C)c1NC(=O)CN(C)C(=O)c1ccccc1Sc1ccccc1C#N,0%,-6%,-9%
C[n+]1cccc(O)c1SCc1ccccc1,1%,14%,-20%
OC[C@@H]1CC[C@@H](Cc2ccc(-c3ccccc3)cc2)O1,4%,8%,-25%
CC[C@@]12C(=O)N(c3cccc(Br)c3)C(=O)N1[C@H](c1ccc(Br)cc1)[C@@H]1C(=O)N(C(C)(C)C)C(=O)[C@@H]12,-11%,-20%,6%
CCCC1(c2ccccc2)NC(=O)N(CC(=O)N2CC(=O)Nc3ccccc32)C1=O (configuration not stated),2%,-17%,1%
Cc1cc(C)cc(N2C(=O)CC(c3ccccc3)CC2=O)c1,3%,-1%,4%
CN(C)c1ccc(-c2cc3ccccc3c(=O)o2)cc1,5%,-11%,-1%
C[C@@H]1[C@H]2CCCC[C@H]2CN(C(=O)OC(C)(C)C)[C@@H]1CC(=O)c1ccccc1,-28%,0%,3%
Cc1ccccc1/C=N/NC(=O)c1ccc(-n2cnnn2)cc1,1%,7%,1%
C[C@H](CO)N1C[C@H](C)[C@@H](CN(C)S(C)(=O)=O)Oc2c(NC(=O)c3ccncc3)cccc2C1=O,1%,0%,-5%
O=C(COC(=O)c1cnccn1)Nc1c(Cl)cc(Cl)cc1Cl,-9%,-16%,16%
O=C(Cn1ccc(C(F)(F)F)n1)NNC(=O)c1ccco1,-1%,-1%,1%
COc1cc(C(=O)OCC(=O)N2CCCC2=O)cc(OC)c1C,-1%,-21%,-8%
CC(=O)Nc1ccc(S(=O)(=O)Nc2ccc(-n3cnnn3)cc2)cc1,1%,18%,12%
CCOc1ccc(NC(=O)COC(=O)c2cc(S(=O)(=O)N3CCCC3)ccc2C)cc1,1%,-25%,-3%
O=C(Cn1cc(C(F)(F)F)cc(Cl)c1=O)Nc1cccc(S(=O)(=O)N2CCCCC2)c1,5%,-27%,-4%
COc1cccc(C(=O)Cn2c(=O)n(CCC(=O)NCC3CCCO3)c(=O)c3cc(OC)c(OC)cc32)c1 (configuration not stated),2%,10%,17%
COc1ccc(CC(=O)NCC(c2ccc(OC)cc2)N(C)C)cc1 (configuration not stated),0%,-3%,4%
Cc1cc(-c2ccc(C(=O)O)s2)cnc1N,-6%,3%,-8%

# Grouped by structure: those above with a CF3 group.
SMILES,SARS PLP yeast,2A StopGo,RE007 growth inh
CC1(c2ccc3ccccc3c2)NC(=O)N(CC(=O)N2CCCC(C(F)(F)F)C2)C1=O (configuration not stated),3%,?,7%
O=C(Cn1ccc(C(F)(F)F)n1)NNC(=O)c1ccco1,-1%,-1%,1%
O=C(Cn1cc(C(F)(F)F)cc(Cl)c1=O)Nc1cccc(S(=O)(=O)N2CCCCC2)c1,5%,-27%,-4%

# Following part
SMILES,SARS PLP yeast,2A StopGo,RE007 growth inh
N#Cc1ccccc1S(=O)(=O)N1CCN(C(=O)c2cc(=O)[nH]c3ccccc23)CC1,-4%,-27%,-13%
O=C(OCC(=O)N1CCc2ccccc21)c1n[nH]c(=O)c2ccccc12,-9%,-7%,1%
Cc1ccc(S(=O)(=O)Nc2cccc(C(=O)NCC(c3ccc(F)cc3)N3CCOCC3)c2)cc1 (configuration not stated),12%,-9%,-7%
Cc1ccc(S(=O)(=O)NCCC(=O)N(C)Cc2cccs2)cc1,-1%,14%,3%
Cc1c(C(=O)OCC(=O)NCCN2C(=O)CSC2=O)cccc1[N+](=O)[O-],-3%,-13%,9%
COc1cc(OC)cc(-c2c(-c3cccs3)c3cc(-c4ccc(N(C)C)nc4)ccc3n2C)c1,1%,0%,-29%
COc1cccc(NC(=O)CN(C)C(=O)c2cccc(NS(=O)(=O)c3ccccc3)c2)c1,3%[6.58 µM],16%,-5%
Cc1ccc([C@H]2C(C(=O)O)=CC[C@@H](c3cccs3)N2S(=O)(=O)c2ccc(C)cc2)cc1,2%,0%,-5%
Nc1nnc(-c2ccc(Cl)c(Cl)c2)s1,-5%,26%,-11%
CC(=O)c1c(C)[nH]c(C(=O)COC(=O)C2(C)CC2(Cl)Cl)c1C (configuration not stated),-6%,-23%,16%

# Shown with bars between the fields: 3 of the compounds above
Molecule | SARS PLP yeast | 2A StopGo | RE007 growth inh
Nc1nnc(-c2ccc(Cl)c(Cl)c2)s1 | -5% | 26% | -11%
COc1cccc(NC(=O)CN(C)C(=O)c2cccc(NS(=O)(=O)c3ccccc3)c2)c1 | 3%[6.58 µM] | 16% | -5%
CC(=O)c1c(C)[nH]c(C(=O)COC(=O)C2(C)CC2(Cl)Cl)c1C (configuration not stated) | -6% | -23% | 16%

# Other compounds follow.
SMILES,SARS PLP yeast,2A StopGo,RE007 growth inh
CCCCN(C(=O)CSc1ncn[nH]1)c1c(N)n(Cc2ccccc2)c(=O)[nH]c1=O,8%,-7%,-3%
CCCCn1c(N)c(N(CC)C(=O)c2ccc(-c3ccc(Cl)cc3)o2)c(=O)[nH]c1=O,-1%,-9%,4%
Oc1cccc2cc3cccc(O)c3c(O)c12,2%,-15%,-17%
O=C(COC(=O)c1ccc(S(=O)(=O)C(F)F)cc1)Nc1ccccc1C(=O)NC1CC1,8%,-6%,-8%
Cc1ccsc1C(=O)OCC(=O)Nc1ccc(Cl)cn1,-6%,67%[activator],?
CC(OC(=O)c1cc(S(=O)(=O)N2CCOCC2)ccc1F)C(=O)NC1CCCC1 (configuration not stated),-1%,-25%,8%
COc1ccc(C(CNC(=O)CCC(=O)c2ccc(C)s2)N2CCOCC2)cc1 (configuration not stated),-11%,-1%,-3%
O=C(CN1CCCC1)Nc1ccc(Br)cc1,1%,17%,-12%
Cc1ccc(NC(=O)Cc2nc(CN(C)CC(=O)Nc3ccc(C)cc3)cs2)cc1,-12%,?,-2%
C=C1CCC2[C@](C)(CO[C@@H]3O[C@H](CO)[C@@H](O)[C@H](O)[C@H]3O)CCC[C@@]2(C)[C@@H]1CCC1=CCOC1=O (some centres not stated),-7%,-23%,13%
CCC/C(=N\NC(=O)Cc1csc(N2CCOCC2)n1)c1ccccc1,-5%,-4%,12%
COc1ccc2ccn(C)c2c1,-1%,1%,-8%
COc1cccc(-c2sc3cc(OC)c(OC)cc3c2-c2ccc(OCCN3CCCCC3)cc2)c1,13%,-8%,7%
C=CCn1c(SCC(=O)NC2CC2)nc2ccccc2c1=O,-2%,-2%,2%
Cc1noc(C)c1S(=O)(=O)N(C)C[C@H]1Oc2c(NC(=O)C3CCCCC3)cccc2C(=O)N([C@H](C)CO)C[C@@H]1C,4%,64%[activator],-16%
CC(=O)Nc1ccc(NC(=O)c2cc(S(=O)(=O)N3CCCCC3)ccc2C)cc1,-5%,-13%,1%
COc1cccc(NC(=O)CN(C)C(=O)c2c(C)nn(-c3ccccc3)c2Cl)c1,-2%,-6%,5%
Nc1ccc(Br)cc1C(=O)c1ccccc1,-7%,6%,-5%
COC(=O)[C@]1(C)N[C@H](CN(C)C(=O)c2ccccc2)[C@@H]2C(=O)N(C)C(=O)[C@@H]21,-1%,-11%,2%
O=C(NCc1ccccn1)C(=O)NCC(c1ccco1)N1CCN(c2ccc(F)cc2)CC1 (configuration not stated),2%,-19%,0%
CNC[C@H]1Oc2c(NS(=O)(=O)c3cccs3)cccc2C(=O)N([C@H](C)CO)C[C@@H]1C,-4%,20%,5%
O=C(COC(=O)COc1ccccc1F)NC1CC1,-8%,59%[activator],5%

# Only part of the results is shown; rates above refer to the full screens.
